Screening results (PubChem BioAssay)
VDR inhibitor – Inhibitors of the vitamin D receptor (VDR): qHTS | 400,000 tested, 0.93% active | Potency, µM, without a hit: max response, negative = inhibition, hits mostly inhibitors | Vitamin D3 receptor (Homo sapiens), P11473 | VDR-SRC2-3 peptide fluorescence polarization, 2 h; active = well fitted inhibition curve with a large enough effect; inconclusive = small, poorly fitted or top-dose-only effect, or another doubt; inactive = no such curve, though single readings can be large or run the other way; also: series mostly up to about 120 µM
Target sequence (P11473 whole entry, looked up): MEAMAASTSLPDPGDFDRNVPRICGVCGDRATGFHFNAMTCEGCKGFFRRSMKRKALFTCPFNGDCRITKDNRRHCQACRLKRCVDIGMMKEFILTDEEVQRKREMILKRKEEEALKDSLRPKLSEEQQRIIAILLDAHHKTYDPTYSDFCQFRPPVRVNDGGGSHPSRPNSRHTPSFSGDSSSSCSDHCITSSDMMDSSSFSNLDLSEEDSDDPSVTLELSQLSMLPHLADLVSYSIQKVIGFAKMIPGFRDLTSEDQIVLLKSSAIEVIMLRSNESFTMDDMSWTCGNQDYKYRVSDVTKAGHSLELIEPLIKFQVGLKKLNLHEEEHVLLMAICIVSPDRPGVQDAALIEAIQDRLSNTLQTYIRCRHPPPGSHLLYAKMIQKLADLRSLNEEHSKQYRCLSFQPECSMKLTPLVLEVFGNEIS
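FP read-out; VDR + SRC2-3 coactivator peptide; 23 nl compound by pintool; 2 h RT incubation; reagents held at 4 deg C, protected from light.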
* = called active by the depositor; ? = inconclusive; & = joins results of further samples. % is scaled to controls: 0 for no effect and ±100 for the full control effect; potency is read from the fitted curve at half-maximal effect. Only part of the results is shown, so the mix of outcomes need not match the whole.

SMILES | VDR inhibitor
CC(=O)N1CCN(S(=O)(=O)c2cccc(C(=O)N(Cc3ccccc3)c3ccc(C)cc3)c2)CC1 | 1.5%
CCOC(=O)c1c(C)[nH]c(C)c1C(=O)Cn1nnc(-c2ccccc2C)n1 | 9.2%
Cc1ccc(/C(O)=C2/C(=O)C(=O)N(Cc3cccnc3)C2c2ccccn2)cc1 (centres undefined) | 8.1%
CC1CCN(C(=O)c2nc[nH]c2C(=O)N2CCc3ccccc3C2)CC1 | -20.3%
COc1cc(-c2ccc(-[n+]3nc(-c4ccccc4)nn3-c3ccc([N+](=O)[O-])cc3)c(OC)c2)ccc1-[n+]1nc(-c2ccccc2)nn1-c1ccc([N+](=O)[O-])cc1 | 1.2%
COc1ccc(N2CCN(C(=O)CSc3ncccc3-c3nc4ccccc4[nH]3)CC2)cc1 | 23.8%
O=C(c1ncc[nH]1)c1cccs1 | -2.8%
c1ccc(-c2noc(-c3cccnc3)n2)cc1 | -8.5%
O=C(CCNS(=O)(=O)c1ccc(Br)s1)N1CCCCC1 | 10.8%
CC1CCCN(C(=O)COC(=O)c2ccc(=O)n(Cc3ccccc3)n2)C1 (centres undefined) | -12.4%
CCN(CC)C(=O)CCc1nnc(Cc2cccc(C(F)(F)F)c2)o1 | ?
CCOC(=O)C1CCCN(C(=O)Cc2ccc(Cl)cc2)C1 (centres undefined) | -14.6%
CN1/C(=C\C(=O)c2cncc(Br)c2)C(C)(C)c2ccccc21 | 5.8%
Cc1ccc(N2CCN(S(=O)(=O)N3CCOCC3)CC2)cc1C | -6.0%
CCCC(C(=O)NC1CCCC1)N(C(=O)Cn1nnc(-c2ccc(C)o2)n1)c1cccc(O)c1 (centres undefined) | 8.4%
Nc1nc(SCCOc2ccccc2)n[nH]1 | 0.1%
O=C(CSCC(=O)N1CCCCC1)Nc1nc(-c2ccccc2)c(-c2ccccc2)s1 | -18.6%
O=C(COC(=O)C12CC3CC(CC(Cl)(C3)C1)C2)Nc1ccccc1 | 0.1%
S=C(NCCc1ccccn1)Nc1ccc(Cl)cc1Cl | 10.1%
COC(=O)C1=NN(C(C)=O)C2(CC(=O)N(c3cc(C)cc(C)c3)C2=O)C1 (centres undefined) | -14.3%
COc1cc(COCC(O)CN2CCN(CCN3C(=O)c4cccc5cccc(c45)C3=O)CC2)cc(OC)c1OC (centres undefined) | 5.1%
O=C1C2C3CCCC3=C3CCCC3C2C(=O)N1c1ccc(Cl)cc1 (centres undefined) | -0.2%
CCN(C(=O)CCc1nnc2ccc(NCc3ccco3)nn12)c1ccccc1 | 9.6%
Cc1nnc(SCC(=O)N2CCN(S(=O)(=O)c3ccc(Cl)cc3)CC2)n(N)c1=O | 9.3%
COCCn1c(=O)c(-c2ccc(F)cc2)nc2cnc(OC)nc21 | -14.0%

Some values from above.
VDR inhibitor result of CCOC(=O)c1c(C)[nH]c(C)c1C(=O)Cn1nnc(-c2ccccc2C)n1 = 9.2%
VDR inhibitor result of O=C1C2C3CCCC3=C3CCCC3C2C(=O)N1c1ccc(Cl)cc1 (centres undefined) = -0.2%
VDR inhibitor result of O=C(COC(=O)C12CC3CC(CC(Cl)(C3)C1)C2)Nc1ccccc1 = 0.1%

The main list resumes; the two compounds before the break are reprinted first.
SMILES | VDR inhibitor
Cc1nnc(SCC(=O)N2CCN(S(=O)(=O)c3ccc(Cl)cc3)CC2)n(N)c1=O | 9.3%
COCCn1c(=O)c(-c2ccc(F)cc2)nc2cnc(OC)nc21 | -14.0%
COc1ccc(-n2nc(C(=O)NCC(=O)N3CCCCC3)c3ccccc3c2=O)c(OC)c1 | 2.8%
CC(=O)NCCc1ccc(S(=O)(=O)N2CCCC2)cc1 | 1.4%
Cc1cc(C)cc(N(CC(=O)N/N=C/c2ccncc2)S(=O)(=O)c2ccccc2)c1 | -6.4%
COc1cc(OC)c(NC(=O)CCCn2nc(C)c3sc4ccccc4c3c2=O)cc1Cl | 0.3%
Cc1ccc(-n2nc3c(c2NC(=O)c2ccc4c(c2)OCO4)CS(=O)C3)c(C)c1 (centres undefined) | -15.1%
N#CCC(=O)Nc1ccc(C(F)(F)F)cc1N1CCOCC1 | 6.8%
O=C(O)CSc1nnnn1-c1ccc2c(c1)OCCO2 | -3.3%
Cc1cc(C)c(C)c(S(=O)(=O)N2CCNCC2)c1C | 15.6%
CCc1ccccc1NCC(=O)Nc1ccccc1C(=O)OC | -14.2%
COc1cccc(CCn2c(N)cc(=O)[nH]c2=S)c1OC | -2.7%
COc1cccc(Oc2cn[nH]c2-c2ccc(OC)cc2O)c1 | ?
O=C(Nc1cccc(O)c1)C1CC(c2c(F)cccc2Cl)=NO1 (centres undefined) | -8.5%
CCCn1c(=O)c(Cc2ccccc2)c(O)c2ccccc21 | 12.7%
COc1cccc(CNC(=O)CCCN2C(=O)CSc3c2c(C)nn3-c2ccccc2)c1OC | 2.6%
CC(C)Oc1ccc(CNC(=O)c2ccc3c(c2)N(C)C(=O)C2CCCCN32)cc1 (centres undefined) | 14.9%
COc1cc(C2c3cc(O)c(OC)cc3CC(C(=O)O)C2CO)ccc1O (centres undefined) | ?
CCOC(=O)CN1C(=O)C(Sc2n[nH]c(-c3cccc(C)c3)n2)CCc2ccccc21 (centres undefined) | 11.1%
CC1(C)CC(NC(=O)c2ccc(Cl)cc2Cl)CC(C)(C)N1 | 4.3%
CCN1CCN(C(=O)Cn2cnc3sc(C)c(S(=O)(=O)N4CCN(c5ncccn5)CC4)c3c2=O)CC1 | -2.6%
CCN1C(=O)[C@H]2[C@@H](c3ccc(C)cc3)N3C(=O)N(c4ccc(C(F)(F)F)cc4)C(=O)[C@@]3(Cc3ccccc3)[C@H]2C1=O | 6.3%
COc1ccccc1CN(C)c1ccc(S(=O)(=O)N2CCN(C)CC2)cn1 | -1.6%
CCCSc1ncc(Cl)c(C(=O)Nc2sc(C(C)=O)c(C)c2C(=O)OCC)n1 | 10.5%
COc1ccc(-n2cccc2/C=C/[N+](=O)[O-])cc1 | ?
COc1ccc(/C=C(/NC(=O)c2ccco2)C(=O)Nc2ccc(C(C)=O)cc2)cc1 | 8.5%
O=C(O)[C@@H]1CCCN1c1ncnc2sc3c(c12)CCC3 | 2.5%

Looked up by structure from the entries so far, three records:
SMILES | VDR inhibitor
Cc1cc(C)cc(N(CC(=O)N/N=C/c2ccncc2)S(=O)(=O)c2ccccc2)c1 | -6.4%
COc1ccc(-n2nc(C(=O)NCC(=O)N3CCCCC3)c3ccccc3c2=O)c(OC)c1 | 2.8%
CCOC(=O)CN1C(=O)C(Sc2n[nH]c(-c3cccc(C)c3)n2)CCc2ccccc21 (centres undefined) | 11.1%

Remaining list, next part:
SMILES | VDR inhibitor
Cc1nn2c(=O)cc(COc3ccc(/C=C(\C#N)C(=O)Nc4ccccc4C)cc3)nc2s1 | -10.5%
COc1ccc(CN(C)C(C)C(=O)Nc2ccc(S(=O)(=O)N3CCCCC3)cc2)cc1F (centres undefined) | 12.6%
CCC(C)(C)n1nnnc1C(c1ccccn1)N1CCN(c2cccc(OC)c2)CC1 (centres undefined) | -11.2%
CC1CN(C2CCN(S(=O)(=O)c3ccc(F)cc3)CC2)CC(C)O1 (centres undefined) | -7.6%
Cc1c(/C(O)=C2\C(=O)C(=O)N(CCN(C)C)C2c2cccnc2)cnn1-c1ccccc1 (centres undefined) | -13.9%
CC1(NC(=O)Nc2cccc3ccccc23)CCS(=O)(=O)C1 (centres undefined) | -0.7%
FC(F)(F)c1ccc(N=Cc2sc(N3CCOCC3)nc2-c2ccccc2)cc1 | 11.3%
O=C(NCc1ccccn1)C1(C(F)(F)F)C/C(=C\Cc2ccccc2)CCCO1 (centres undefined) | -1.8%
COCCNC(=S)N1CCN(S(=O)(=O)c2ccc(Cl)s2)CC1 | 10.5%
CCCn1c(=N)n(CC(=O)c2ccc(Cl)c(Cl)c2)c2ccccc21 | 1.6%
CS(=O)(=O)N1CCCC(C(=O)NC2CCCCCCC2)C1 (centres undefined) | -1.6%
CCCNc1c(NC(=O)c2ccc3c(c2)OCO3)c(=O)oc2ccccc12 | -4.6%
Cc1ccc(NC(=O)c2ccc(NCCCN3CCOCC3)c([N+](=O)[O-])c2)cc1Cl | -1.3%
O=C(CCSc1ccc(Cl)cc1)N1CCN(c2ncccn2)CC1 | -0.8%
c1csc(-c2nc(N3CCOCC3)c3ccccc3n2)c1 | -12.3%
C=C(C)COc1ccc(-c2nc(N)ncc2Oc2ccccc2OCC)c(O)c1 | 11.8%
CN1CCN(c2ccc(S(=O)(=O)N3CCOCC3)cc2NC(=O)COc2ccc(C#N)cc2)CC1 | 7.6%
C=CCNC(=O)c1ccc(N(CC=C)S(C)(=O)=O)cc1 | -15.7%
O=C(CCCOc1ccc(Cl)cc1Cl)Nc1nnc(C2CC2)s1 | -2.5%
CCOC(=O)CSc1cc(=O)n(C)c2cc(Cl)ccc12 | -3.9%
Cc1ccc(S(=O)(=O)N(Cc2cc3ccccc3[nH]c2=O)c2cccc(C)c2)cc1 | -14.3%
CN(C)c1ccc(-c2cccc(C3CC=CC4C3C(=O)N(Cc3ccccc3)C4c3ccc(C(F)(F)F)cc3)c2)cc1 (centres undefined) | -4.6%&-17.2%
O=C(O)c1c[nH]c2ccc(F)cc2c1=O | 8.6%
CCS(=O)(=O)NCCc1csc2nc(-c3ccc(C)cc3)nn12 | 13.4%
COC(=O)c1ccc(NC(=O)CC2C(=O)N(c3ccc(Cl)cc3)C(=O)N2Cc2cccs2)cc1 (centres undefined) | 4.5%

Remaining list, next part:
SMILES | VDR inhibitor
COC(=O)C(CC(C)C)NC(=O)/C=C/c1ccc(Cl)cc1 (centres undefined) | 0.6%
COc1cc2[nH]c(=O)n(CCC(=O)NC3CCN(Cc4ccccc4)CC3)c(=O)c2cc1OC | 7.5%
CC12CCC(C3NC(=S)NN=C31)C2(C)C (centres undefined) | -19.0%
CNC(=O)Nc1ccccc1C(=O)NCc1ccccc1 | 3.9%
S=C(NCCN1CCOCC1)NC1CCCC1 | -6.5%
CC1CN(C(=O)CSc2nnc(-c3ccc(Cl)cc3)n2C)CC(C)O1 (centres undefined) | -18.6%
COc1ccc(NC(=O)Cn2cc(C(=O)C3CC3)c3ccccc32)cc1 | -3.1%&-10.4%
CS(=O)(=O)c1ccc(NS(=O)(=O)c2ccc(Cl)c(C(=O)NC3=NCCS3)c2)cc1 | -0.6%
Cc1c(C)n(Cc2ccc(Cl)cc2)c2ccc(C(=O)N3CCN(c4ccccc4F)CC3)cc12 | 7.6%
Cc1coc2c1c(C)cc1oc(=O)c(CC(=O)NCCCN3CCCC3=O)c(C)c12 | -8.2%
O=C(NN1CCOCC1)c1ccc(Cl)cc1[N+](=O)[O-] | 10.1%
CCC(C)NS(=O)(=O)c1ccc(OC)c(Cl)c1Cl (centres undefined) | -2.5%
CCOC(=O)N1CCN(C2CC(=O)N(c3ccc(Oc4ccccc4)cc3)C2=O)CC1 (centres undefined) | -2.5%
CCSc1nc(-c2ccccc2OC)nc2c1Cc1c(CO)cnc(C)c1O2 | 9.2%
CCc1cc(C(c2ccccn2)N2CCN(C)CC2)c(NC(=O)c2ccccc2)s1 (centres undefined) | -10.9%
CN1C(N)=NC(=O)/C1=C\c1ccc(Br)cc1 | -18.6%
CCC(C)NC(=O)c1cc2c(=O)n3cccc(C)c3nc2s1 (centres undefined) | 3.4%
O=C(COC(=O)C1CCN(c2ccc(C(F)(F)F)cn2)CC1)Nc1ccc(Cl)cn1 | -5.5%
COc1ccccc1NC(=O)N1CCN(c2ccc3nnc(-c4ccc(F)cc4)n3n2)CC1 | 22.3%&-4.3%
CN(C(=O)CSc1nc2ccc(NC(=O)c3ccccc3)cc2s1)c1ccccc1 | -14.3%
CCC(=O)Nc1ccc(C=C(C(C)=O)C(C)=O)cc1 | 79.4µM*
CN(C)/C=C(\C=O)c1onc(-c2ccccc2Cl)c1C#N | 8.4%
COc1ccccc1N1CCN(S(=O)(=O)c2c(C)nc3sc(C)c(C)n3c2=O)CC1 | 9.5%
CN1CCN(CC(=O)Nc2nnc(-c3cccs3)s2)CC1 | 12.6%
Cc1ccc(C(=O)C2CCN(CC(=O)Nc3nc(C)cs3)CC2)cc1 | 0.6%

Next part; it opens with the 6 that closed the last part.
SMILES | VDR inhibitor
CN(C(=O)CSc1nc2ccc(NC(=O)c3ccccc3)cc2s1)c1ccccc1 | -14.3%
CCC(=O)Nc1ccc(C=C(C(C)=O)C(C)=O)cc1 | 79.4µM*
CN(C)/C=C(\C=O)c1onc(-c2ccccc2Cl)c1C#N | 8.4%
COc1ccccc1N1CCN(S(=O)(=O)c2c(C)nc3sc(C)c(C)n3c2=O)CC1 | 9.5%
CN1CCN(CC(=O)Nc2nnc(-c3cccs3)s2)CC1 | 12.6%
Cc1ccc(C(=O)C2CCN(CC(=O)Nc3nc(C)cs3)CC2)cc1 | 0.6%
CCOc1ccccc1C(=O)OCC(=O)NCC1CCCCC1 | 8.1%
NC(=O)c1ncn(C2OC(CO)C(O)C2O)c1N (centres undefined) | -3.3%&16.1%
COC(=O)c1cc(Br)ccc1OC(=O)c1cccnc1 | -3.6%
O=C(COC(=O)c1nc(Cl)ccc1Cl)NNC(=O)c1ccccc1 | -23.7%
CCOc1ccc(CCNC(=O)C2=C(C)C(=O)OC23CCC(C)CC3)cc1 (centres undefined) | -7.0%
COc1ccc(C(CNc2ncnc3sccc23)N(C)C)cc1OC (centres undefined) | -0.1%
COC(=O)c1ccc(C(NC(=O)OCc2ccccc2)/C(F)=C/[C@@H](C)C(=O)NCc2ccc(-c3ccccc3)cc2)cc1 (some centres undefined) | -25.5%
O=C(CC1N=C2c3ccccc3N=C(SCc3ccccc3Cl)N2C1=O)NC1CCCCC1 (centres undefined) | 7.5%
O=C(Nc1ccc(N2CCN(C(=O)c3cccs3)CC2)cc1)c1cccnc1 | -20.0%
CC(OC(=O)CCc1nc2ccccc2c(=O)[nH]1)C(=O)Nc1ncc(Cl)cc1Cl (centres undefined) | 9.2%
CCOc1ccc(NC(=O)CN(C)C(=O)CSCc2c(C)noc2C)cc1OCC | 5.0%
COc1ccc(-c2noc(CCC(=O)Nc3cc(OC)ccc3OC)n2)cc1 | 15.5%
CCOC(=O)C1=C(c2ccccc2)OC(N)=C(C#N)C1c1ccncc1 (centres undefined) | -1.5%
